Assay outcomes (PubChem)
RmlCD inh mix: RmlC/RmlD inhibition, mixture screen; inhibition, % at 5.5 µM; RmlC/RmlD coupled enzyme inhibition, 384-well mixture HTS; hit rate 0.39% among 110,000; AID 1532; in the data active = inhibition above about 30%, passing the limit was not always enough; only retested compounds are shown here; note: strong numbers were not always called active
RmlCD inh mix retest: also measured in RmlCD inh mix; calls as there; inhibition, %; measured here: mean retest inhibition;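 single compounds in two wells; values far above 100% likely come from compound fluorescence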
The depositor's hits bear a star. Some of the compounds tested (hit frequency here may not be typical).

SMILES	RmlCD inh mix	RmlCD inh mix retest
CC(=O)[C@H]1CC[C@H]2[C@@H]3C[C@H](C)C4=CC(=O)CC[C@]4(C)[C@H]3[C@@H](O)C[C@]12C	31	-6
